# Screening results from PubChem.
# Vaccinia stage: blocks a specific stage of Vaccinia orthopoxvirus infection, primary screen, cell-based, single point. hit rate 0.01% among 89,000. activity change (mCherry), % (test concentration not listed). AID 1053133, 2014. Vaccinia-infected cells, mCherry/Venus stage reporter fluorescence; hits give low values; some inactives read as strong as hits;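 active = mCherry past -33% and 40 or more points under the early reporter, replicates agreeing; inconclusive = past -33% without that gap or agreement; tested in A549 cells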;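 note: scaled between vehicle wells and reference inhibitor wells; 23 nL library stock went into each well; one replicate is shown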
# Vaccinia stage Venus: also measured in Vaccinia stage; calls as there; activity change (Venus), %; measured here: Venus reporter, other viral stage;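 negative = less Venus signal; first of two replicates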
# Starred values were filed as active, the others as inactive; ? = inconclusive; · = no result given; & = joins results of further samples. This is a subset, so the mix of outcomes need not match the whole.
SMILES,Vaccinia stage,Vaccinia stage Venus
CCCC(=O)N1CC2(CN(C(=O)NC(C)C)C2)c2c([nH]c3cc(OC)ccc23)[C@H]1CO,22,20
COCC#Cc1ccc2c(c1)O[C@H](CN(C)S(=O)(=O)c1cccc(F)c1)[C@@H](C)CN([C@H](C)CO)S2(=O)=O,0,2
COc1ccc(S(=O)(=O)Nc2cccc3c2O[C@H](CN(C)C(=O)Nc2ccc4c(c2)OCO4)[C@H](C)CN([C@@H](C)CO)C3=O)cc1,22,10
Cc1ccc(S(=O)(=O)N2C[C@@H](O)COC[C@H]3O[C@@H](CC(=O)N[C@@H]4CCN(Cc5ccccc5)C4)CC[C@@H]32)cc1,-29,-18
CC(=O)N(C)C[C@H]1Oc2cc(C#CC3CCCCC3)ccc2S(=O)(=O)N([C@H](C)CO)C[C@H]1C,?,·
Cc1noc(C)c1NC(=O)Nc1ccc2c(c1)C(=O)N([C@@H](C)CO)C[C@H](C)[C@@H](CN(C)CC1CC1)OCCCC[C@H](C)O2,20,2
COc1ccc(NC(=O)N(C)C[C@H]2Oc3c(NS(=O)(=O)c4ccc(Cl)cc4)cccc3C(=O)N([C@@H](C)CO)C[C@H]2C)cc1,4,-3
C[C@H](CO)N1C[C@H](C)[C@H](CN(C)C(=O)Nc2ccc(F)cc2)Oc2cc(-c3cccc(C(=O)N(C)C)c3)ccc2S1(=O)=O,23,11
O=C(C[C@H]1C[C@H]2c3cc(NS(=O)(=O)c4ccccc4)ccc3O[C@H]2[C@@H](CO)O1)NC1CCCCC1,11,7
COc1ccc(S(=O)(=O)N(C)C[C@H]2Oc3cc(C#CC4CCCCC4)ccc3S(=O)(=O)N([C@@H](C)CO)C[C@@H]2C)cc1,-30,-30
COc1ccc(CN(C)C[C@H]2Oc3c(NS(=O)(=O)c4c(C)noc4C)cccc3C(=O)N([C@H](C)CO)C[C@H]2C)cc1,-5,-2
CNC[C@@H]1Oc2ccc(NC(=O)Nc3c(C)noc3C)cc2CC(=O)N([C@H](C)CO)C[C@H]1C,14,-1
CCC(=O)N1[C@H](CNC(C)=O)[C@H](c2ccc(-c3cccc(F)c3)cc2)[C@@H]1CO,9,18
COc1ccc(NC(=O)Nc2ccc3c(c2)C(=O)N([C@H](C)CO)C[C@H](C)[C@H](CN(C)Cc2ccncc2)OCCCC[C@@H](C)O3)cc1,34,12
COc1ccc(-c2cn(CC[C@@H]3CC[C@@H](NC(=O)NC(C)C)[C@@H](CO)O3)nn2)cc1,2,0
C[C@@H]1CN([C@@H](C)CO)C(=O)Cc2cc(NC(=O)CCN3CCOCC3)ccc2O[C@@H]1CN(C)S(=O)(=O)c1ccc(F)cc1,12,10
COc1ccc(NC(=O)Nc2ccc3c(c2)[C@H]2C[C@H](CC(=O)N4CCCCC4)O[C@@H](CO)[C@H]2O3)cc1,22,18
CN(C)C(=O)c1ccc(-c2ccccc2[C@H]2[C@@H](C#N)N(C(=O)C3CCC3)[C@H]2CO)cc1,13,12
COc1ccc(NC(=O)Nc2ccc3c(c2)C(=O)N([C@H](C)CO)C[C@@H](C)[C@@H](CN(C)C(=O)NC(C)C)O3)cc1,13,15
C[C@H]1CN([C@@H](C)CO)C(=O)c2cc(/C=C/c3ccccc3)cnc2O[C@@H]1CN(C)C(=O)Nc1ccc(C(F)(F)F)cc1,?,·
C[C@@H]1CCCCO[C@H](CN(C)C(=O)c2ccccc2)[C@@H](C)CN([C@H](C)CO)C(=O)c2cc(NC(=O)Cc3ccccc3)ccc2O1,25,4
CCCN1C[C@@H](C)[C@H](OC)CN(C)C(=O)c2ccc(NC(=O)c3cccc(F)c3)cc2OC[C@H]1C,-32,-27
Cc1noc(C)c1S(=O)(=O)Nc1ccc2c(c1)CC(=O)N([C@H](C)CO)C[C@@H](C)[C@H](CN(C)C(=O)NC(C)C)O2,18,17
Cc1noc(C)c1S(=O)(=O)Nc1ccc2c(c1)C(=O)N([C@H](C)CO)C[C@@H](C)[C@H](CN(C)C(=O)NC1CCCCC1)O2,2,1
N#C[C@@H]1[C@@H](c2ccc(C#CCC3CCCC3)cc2)[C@H](CO)N1C(=O)CN1CCOCC1,-17,-9
COCC#Cc1cnc2c(c1)C(=O)N([C@H](C)CO)C[C@@H](C)[C@H](CN(C)C(=O)Nc1ccc(OC)cc1)O2,21,10
Cc1ccc(S(=O)(=O)N(C)C[C@@H]2Oc3ccc(NC(=O)NC(C)C)cc3CC(=O)N([C@H](C)CO)C[C@@H]2C)cc1,-2,-3
Cc1ccc(S(=O)(=O)N(C)C[C@@H]2OCCCC[C@H](C)Oc3ccc(NC(=O)Nc4ccccc4)cc3C(=O)N([C@H](C)CO)C[C@@H]2C)cc1,-21,13
CO[C@@H]1CN(C)C(=O)c2ccc(NC(=O)NC(C)C)cc2OC[C@@H](C)N(CC2CC2)C[C@H]1C,-1,14
O=C(Nc1ccc2c(c1)OCO2)N1[C@@H]2CNC[C@H]1C2c1ccc(-c2cccnc2)cc1 (stereo not given in full),-1&-21,-2&-9
COc1ccc(-c2ccc3c(c2)O[C@@H](CN(C)Cc2ccccc2C(=O)O)[C@@H](C)CN([C@@H](C)CO)S3(=O)=O)cc1,22,15
COc1ccc(NC(=O)Nc2ccc3c(c2)C(=O)N([C@H](C)CO)C[C@H](C)[C@@H](CN(C)S(C)(=O)=O)OCCCC[C@@H](C)O3)cc1,6,-6
C[C@@H]1CN([C@H](C)CO)C(=O)c2cc(NS(C)(=O)=O)ccc2O[C@@H]1CN(C)Cc1ccc2c(c1)OCO2,0,6
Cc1noc(C)c1NC(=O)N(C)C[C@@H]1OCc2cnnn2CCCC(=O)N([C@@H](C)CO)C[C@H]1C,6&10,-2&10
C[C@H]1CN([C@@H](C)CO)C(=O)Cc2cc(NS(=O)(=O)c3ccc(Cl)cc3)ccc2O[C@H]1CN(C)Cc1ccc(C(=O)O)cc1,14,8
CO[C@@H]1CN(C)C(=O)c2cc(NC(=O)Nc3ccccc3F)ccc2OC[C@@H](C)N(C)C[C@@H]1C,-21,-14
O=C(C[C@@H]1C[C@H]2c3cc(NS(=O)(=O)c4ccc(F)cc4)ccc3O[C@H]2[C@@H](CO)O1)NCc1cc(F)ccc1F,-16,-7
Cc1ccc(S(=O)(=O)N(C)C[C@@H]2OCCCC[C@@H](C)Oc3ccc(NC(=O)Nc4ccc(C(F)(F)F)cc4)cc3C(=O)N([C@@H](C)CO)C[C@@H]2C)cc1,-1,3
COc1ccc(NC(=O)N(C)C[C@@H]2Oc3ccc(NC(=O)NC(C)C)cc3C(=O)N([C@H](C)CO)C[C@@H]2C)cc1,13,7
COc1ccc(NC(=O)N(C)C[C@H]2OCc3ccccc3-c3ccccc3C(=O)N([C@@H](C)CO)C[C@H]2C)cc1,16,15
COCC(=O)Nc1ccc2c(c1)C(=O)N(C)[C@H]1CC[C@H](CC(=O)NCc3cccc(F)c3)O[C@@H]1CO2,43,17
C=C[C@H](OC)[C@@H](OC(=O)Nc1ccc(SC)cc1)c1ccc(OCCO)cc1,13,9
COc1ccc(NC(=O)N(C)C[C@@H]2OCCCC[C@@H](C)Oc3ccc(N(C)C)cc3C(=O)N([C@@H](C)CO)C[C@H]2C)cc1,6,13
C[C@@H]1CCCCO[C@H](CN(C)Cc2ccccc2)[C@H](C)CN([C@H](C)CO)C(=O)c2cc(NC(=O)Nc3cccc4ccccc34)ccc2O1,-22,-15
COc1ccc(CN(C)C[C@@H]2Oc3ccc(NC(=O)Nc4ccc5c(c4)OCO5)cc3C(=O)N([C@@H](C)CO)C[C@@H]2C)cc1,8,11
COC(=O)C[C@@H]1C=C[C@H](NS(=O)(=O)c2ccccc2F)[C@@H](CO)O1,-3,-1
COc1ccc(S(=O)(=O)N(C)C[C@H]2Oc3ccc(NC(=O)Nc4ccccc4)cc3CC(=O)N([C@@H](C)CO)C[C@@H]2C)cc1,14,4
CCCNC(=O)C[C@H]1C[C@H]2c3cc(NC(=O)NC4CCCCC4)ccc3O[C@H]2[C@H](CO)O1,9,5

# A draw from above in order of SMILES length, falling.
SMILES,Vaccinia stage,Vaccinia stage Venus
C[C@@H]1CCCCO[C@H](CN(C)Cc2ccccc2)[C@H](C)CN([C@H](C)CO)C(=O)c2cc(NC(=O)Nc3cccc4ccccc34)ccc2O1,-22,-15
C[C@@H]1CN([C@@H](C)CO)C(=O)Cc2cc(NC(=O)CCN3CCOCC3)ccc2O[C@@H]1CN(C)S(=O)(=O)c1ccc(F)cc1,12,10
COc1ccc(S(=O)(=O)N(C)C[C@H]2Oc3cc(C#CC4CCCCC4)ccc3S(=O)(=O)N([C@@H](C)CO)C[C@@H]2C)cc1,-30,-30
COc1ccc(-c2ccc3c(c2)O[C@@H](CN(C)Cc2ccccc2C(=O)O)[C@@H](C)CN([C@@H](C)CO)S3(=O)=O)cc1,22,15
COCC#Cc1ccc2c(c1)O[C@H](CN(C)S(=O)(=O)c1cccc(F)c1)[C@@H](C)CN([C@H](C)CO)S2(=O)=O,0,2
C[C@@H]1CN([C@H](C)CO)C(=O)c2cc(NS(C)(=O)=O)ccc2O[C@@H]1CN(C)Cc1ccc2c(c1)OCO2,0,6
CC(=O)N(C)C[C@H]1Oc2cc(C#CC3CCCCC3)ccc2S(=O)(=O)N([C@H](C)CO)C[C@H]1C,?,·
Cc1noc(C)c1NC(=O)N(C)C[C@@H]1OCc2cnnn2CCCC(=O)N([C@@H](C)CO)C[C@H]1C,6&10,-2&10
N#C[C@@H]1[C@@H](c2ccc(C#CCC3CCCC3)cc2)[C@H](CO)N1C(=O)CN1CCOCC1,-17,-9
O=C(Nc1ccc2c(c1)OCO2)N1[C@@H]2CNC[C@H]1C2c1ccc(-c2cccnc2)cc1 (stereo not given in full),-1&-21,-2&-9
COC(=O)C[C@@H]1C=C[C@H](NS(=O)(=O)c2ccccc2F)[C@@H](CO)O1,-3,-1

# The results go on.
SMILES,Vaccinia stage,Vaccinia stage Venus
C[C@@H]1CCCCO[C@H](CN(C)C(=O)Nc2ccc(C(F)(F)F)cc2)[C@H](C)CN([C@H](C)CO)C(=O)c2cc(NS(=O)(=O)c3ccc(F)cc3)ccc2O1,-17,-11
COc1ccc(S(=O)(=O)N(C)C[C@H]2Oc3ccc(NC(=O)NC4CCCCC4)cc3C(=O)N([C@@H](C)CO)C[C@@H]2C)cc1,-3,0
O=C(c1cccc(F)c1)N1CC(=O)N2[C@@H](CO)[C@@H](c3ccc(-c4cccnc4)cc3)[C@@H]2C1,11,0
COc1ccc(CN(C)C[C@H]2Oc3ccc(NS(=O)(=O)c4ccc(Cl)cc4)cc3CC(=O)N([C@H](C)CO)C[C@H]2C)cc1,?,·
C[C@@H]1CN([C@H](C)CO)C(=O)c2cc(NC(=O)Cc3cn(C)c4ccccc34)ccc2O[C@@H]1CN(C)C(=O)NC1CCCCC1,-10,6
CN1C(=O)c2cc(NC(=O)c3ccccc3Cl)ccc2OC[C@@H]2O[C@H](CC(=O)O)CC[C@H]21,0,6
COc1ccc(S(=O)(=O)N(C)C[C@@H]2OCCCC[C@@H](C)Oc3ccc(NS(C)(=O)=O)cc3C(=O)N([C@H](C)CO)C[C@H]2C)cc1,3,-5
COCC#Cc1cnc2c(c1)C(=O)N([C@H](C)CO)C[C@@H](C)[C@H](CN(C)S(=O)(=O)c1ccccc1)O2,-5,-3
COCC(=O)Nc1ccc2c(c1)[C@@H]1C[C@@H](CC(=O)N[C@H](C)c3ccccc3)O[C@@H](CO)[C@@H]1O2,0,7
C[C@H](CO)N1C[C@H](C)[C@H](CN(C)S(=O)(=O)c2ccccc2C#N)OCc2cn(nn2)CCCC1=O,18,13
C[C@@H]1CCCCO[C@@H](CN(C)C(=O)CCCN(C)C)[C@@H](C)CN([C@@H](C)CO)C(=O)c2cc(NC(=O)c3ccccc3)ccc2O1,7,10
COCC(=O)N(C)C[C@H]1Oc2ncc(C#Cc3ccccc3OC)cc2C(=O)N([C@H](C)CO)C[C@@H]1C,17,5
C[C@H]1CN([C@@H](C)CO)C(=O)Cc2cc(NC(=O)Nc3ccc4c(c3)OCO4)ccc2O[C@H]1CN(C)Cc1ccc(Oc2ccccc2)cc1,-13,-3
O=C(C[C@H]1CC[C@@H]2[C@H](COC[C@@H](O)CN2CC2CCCC2)O1)NCC1CC1,7,16
O=C(Cc1ccccn1)N1CC(=O)N2[C@H](CO)[C@H](c3ccc(C#CC4CC4)cc3)[C@@H]2C1,14,6
Cc1ccc(S(=O)(=O)N[C@H]2CC[C@@H](CCNC(=O)C3CCCC3)O[C@@H]2CO)cc1,-25,-7
O=C(C[C@H]1C=C[C@@H](NC(=O)Nc2ccc(F)cc2)[C@H](CO)O1)NCc1ccccn1,-2,-3
C[C@@H]1CN([C@H](C)CO)S(=O)(=O)c2ccc(-c3ccc(C#N)cc3)cc2O[C@@H]1CN(C)Cc1ccccn1,-9,-6
CCCNC(=O)C[C@H]1CC[C@H]2[C@@H](COC[C@H](O)CN2C(=O)C2CCOCC2)O1,-3,-1
CCCNC(=O)Nc1ccc2c(c1)OC[C@@H](C)N(CC1CCCC1)C[C@@H](C)[C@@H](OC)CN(C)C2=O,14,8
CN1c2ccc(-c3ccccc3F)cc2[C@H]2[C@H](CCN2C(=O)Nc2ccc(F)cc2)[C@H]1CO,?,·
O=C(C[C@H]1CC[C@H]2[C@@H](COC[C@H](O)CN2Cc2cc(F)ccc2F)O1)N1CCc2ccccc2C1,4,3
CCNC(=O)C[C@@H]1CC[C@H]2[C@@H](COC[C@@H](O)CN2C(=O)C2CCOCC2)O1,7,11
C[C@H]1CN([C@@H](C)CO)C(=O)c2cc(NC(=O)Cn3cnnn3)ccc2O[C@@H]1CN(C)Cc1ccccc1,0,0
CN(C)C(=O)[C@@H]1[C@@H](CO)[C@@H]2Cn3c(ccc(C4=CCCCC4)c3=O)[C@H]1N2CC1CC1,6,16
CC=Cc1ccc2n(c1=O)C[C@@H]1[C@@H](CO)[C@H](C(=O)Nc3ccccc3)N(CC)[C@H]21 (mixture of isomers),21,22
CCCC#Cc1ccc2c(c1)O[C@@H](CN(C)C(=O)CC1CC1)[C@H](C)CN([C@@H](C)CO)S2(=O)=O,-10,-13
